# Gli-Sufu block – Gli-Sufu pathway antagonism | Sufu-KO-LIGHT fibroblasts, Gli luciferase reporter luminescence | inhibition, % at 5 µM | 340,000 tested, 0.74% active | AID 588413;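 active = inhibition above about 55%, limit read from the data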;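 also: 0% = DMSO-treated cells and 100% = wells with medium but no cells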
# 697 NFkB inh – lowers PMA/ionomycin-induced NF-kB signal in 697 B cells; 330,000 tested, 0.33% active; inhibition, % at 4 µM; 697 B-cell NF-kB luciferase reporter, 16 h; in the data active = inhibition above about 35%
# XBP1 UPR activ – adaptive UPR (XBP1) activation; CHO-XBP1 luciferase reporter, IRE1-XBP1 UPR activation, luminescence; percent of tunicamycin response, DMSO as zero; activation, % at 20 µM; 330,000 tested, 0.33% active;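 active = versus positive control, 20 µM dose yields 30% or more activation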;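 also: 100% = tunicamycin at 10 µg/mL and 0% = DMSO only wells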
#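 Test system: CHO-XBP1 luciferase reporter cells | Buffer or medium: Serum-containing F12 medium, 10% FBS | Schedule: 6 h compound exposure at 37 °C, 5% CO2 | Detection: Steady-Glo luciferase glow luminescence, 10 min after reagent addition | Read-out basis: Activation, % of tunicamycin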
# Mdm2 MdmX PPI – inhibitors of human Mdm2/MdmX interaction | 330,000 tested, 3% active | SaOS-2 split-luciferase Mdm2/MdmX complementation, luminescence | inhibition, % at 8 µM | O15151+Q00987;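 active = inhibition of at least 50% at 8 µM in the primary screen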
# Jurkat NFkB inh – inhibitors of the PMA/ionomycin-induced NF-kB reporter in Jurkat cells; PMA/ionomycin-induced NF-kB luciferase reporter, luminescence; inhibition, % at 4 µM; 330,000 tested, 0.53% active; in the data active = inhibition above about 50%
# EBI2 block – blocks human EBI2 receptor beta-arrestin signaling | P32249 | EBI2 beta-arrestin recruitment, luminescence, 7a,25-OHC stimulated | inhibition, % at 5 µM | 360,000 tested, 0.81% active; in the data active = inhibition above about 38%;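 also: enzyme fragment complementation signal reports receptor beta-arrestin coupling in cells; 0% = agonist plus DMSO wells and 100% = wells without agonist; some results beyond the cut were filed as inactive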
# Target sequence (P32249 whole entry, looked up, the tested form may be a part): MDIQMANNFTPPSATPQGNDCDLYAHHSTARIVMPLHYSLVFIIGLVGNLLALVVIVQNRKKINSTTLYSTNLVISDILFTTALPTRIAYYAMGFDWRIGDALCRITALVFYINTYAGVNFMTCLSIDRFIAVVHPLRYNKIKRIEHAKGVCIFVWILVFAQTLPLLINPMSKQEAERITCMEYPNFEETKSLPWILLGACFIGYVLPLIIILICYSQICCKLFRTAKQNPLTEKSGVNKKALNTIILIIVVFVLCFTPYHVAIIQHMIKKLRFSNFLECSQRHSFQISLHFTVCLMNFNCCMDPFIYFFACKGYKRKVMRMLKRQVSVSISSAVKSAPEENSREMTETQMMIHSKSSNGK
# CHOP UPR activ – apoptotic UPR (CHOP) activation; CHO-CHOP luciferase reporter, luminescence; percent of tunicamycin response over DMSO baseline; activation, % at 10 µM; 330,000 tested, 0.34% active; AID 449763;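 active = at 10 µM dose, activation of 40% or more, normalized to positive control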;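 also: 100% = tunicamycin at 10 µg/mL and 0% = DMSO alone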
#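 System: CHO-CHOP luciferase reporter cell line | Buffer or medium: F12 medium containing 10% fetal bovine serum | Doses: One dose, 10 µM in 0.5% DMSO | Times: 6 h compound exposure at 37 °C after overnight seeding | Signal: Luciferase luminescence | Read-out: % activation vs tunicamycin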
# * = called active by the depositor; / = not tested or not shown.
structure	EBI2 block	Gli-Sufu block	CHOP UPR activ	XBP1 UPR activ	697 NFkB inh	Jurkat NFkB inh	Mdm2 MdmX PPI
CC(=O)N1CCc2cc(C(=O)CN3CCN(c4ccccn4)CC3)ccc21	4	12	1.0	-3	18	2	-1
CCOc1ccc(OCC)c(NC(=O)CSc2nnnn2CC)c1	-7	1	1.5	1	5	-18	18
CCn1c(SCC(=O)Nc2ccc(Br)cn2)nnc1C1CC1	-6	3	2.5	-4	-6	1	6
COc1ccc(-c2nnc(SCC(=O)Nc3cc(C)on3)n2C)cc1OC	-4	-15	-1.2	-1	-23	-11	-5
COc1ccc(CN2CCNC(=O)C2CC(=O)O)c(OC)c1 (stereo not given)	-12	0	1.8	-1	-11	6	-16
Nc1cc(=O)[nH]c(SCC(=O)NNC(=O)Cc2ccccc2)n1	14	1	-0.5	-2	7	1	-11
COc1ccc(NC(=O)c2cc(-c3cc(Cl)ccc3C)n[nH]2)cn1	-6	/	/	/	/	/	/
COc1ccc(S(=O)(=O)n2ccc(C(C)Oc3ccc(-c4ccccc4)c(F)c3)n2)cc1 (stereo not given)	-3	9	0.9	-2	-2	3	29
CC(Oc1ccc(-c2ccccc2)c(F)c1)c1ccn(S(=O)(=O)c2ccc(Br)cc2)n1 (stereo not given)	22	1	-1.8	-3	-6	-15	21
O=C1CC(Sc2nnnn2C2CCCCC2)C(=O)N1c1ccccc1 (stereo not given)	1	4	4.7	-10	32	11	1
CCC(C)(C)n1nnnc1CN1CCN(c2nc3cc(OC)ccc3cc2C#N)CC1	13	3	-0.8	4	7	-2	22
COc1cc(OC)cc(C(=O)NC(=S)Nc2nnn(C)n2)c1	5	5	-0.2	0	11	-2	8
CCN(CCCNC(=O)C1CCN(S(=O)(=O)CC)CC1)c1cccc(C)c1	-3	5	1.0	-3	-6	-6	-1
CC(C)C(C(=O)OCC(=O)c1ccc2c(c1)NC(=O)CO2)N1C(=O)c2ccccc2C1=O (stereo not given)	-8	-4	-0.1	2	-45	-30	13
COc1ccc2oc(-c3ccccc3)c(C(=O)N(C)C)c2c1	7	-8	-1.0	-1	-20	-8	13
COC(=O)[C@H](C(C)C)N(Cc1ccccc1)S(=O)(=O)CCN1CCN(c2ccccc2)CC1	1	-7	2.5	1	-30	/	-5
COc1ccc(CN2C(=O)C(CC(C)C)Nc3ncnc(N4CCOCC4)c32)cc1 (stereo not given)	-1	4	2.9	-1	19	0	0
CC(=O)Nc1ccc(NC(=O)CSc2ccc(-c3ccco3)nn2)cc1	5	-14	-1.4	-1	8	0	3
c1ccc(-c2nn3cnnc3c3ccccc23)cc1	4	-4	0.3	2	-11	7	25
CC(C)C(NS(=O)(=O)c1cccc2nsnc12)C(=O)N1CCn2c1nc1ccccc12 (stereo not given)	-1	6	1.7	0	1	4	23
O=S(=O)(c1ccccc1)N1CCN(c2ncnc3scc(-c4ccccc4)c23)CC1	12	29	0.2	-1	1	-4	13
CCOC(=O)CN1C(=O)SC(Nc2ccc(C)cc2)C1=O (stereo not given)	-3	-6	-1.1	0	2	6	3
CCCNC(=O)c1c(N)n(-c2cc(OC)cc(OC)c2)c2nc3ccccc3nc12	5	13	3.3	1	-11	8	20
Cn1cc(/C=N/NC(=O)c2cccc([N+](=O)[O-])c2)c2ccccc21	3	5	4.6	9	-5	-4	61*
COc1ccc(-c2nnc(-c3ccc(N)cc3)o2)cc1	9	-96	3.7	4	-108	-106	-103
O=C(CN1CCN(Cc2ccccc2)CC1)N/N=C/C=C/c1ccccc1[N+](=O)[O-]	0	14	2.4	-1	-5	13	-6
CCOC(=O)C(NC(=O)OC(C)C)(Nc1nccs1)C(F)(F)F (stereo not given)	-12	-5	0.9	-1	7	-15	10
C/C(=N\NC(=O)c1cccs1)c1c(O)cc(C)oc1=O	-4	-4	0.5	-1	-13	-19	-12
O=C(Nc1nnc(-c2ccccc2)o1)c1nc2ccccc2s1	-2	-5	1.7	5	-1	9	1
CC1(C)COC(c2cccc(C3=NC(C)(C)CO3)n2)=N1	-16	5	0.3	-1	-30	6	-31

# Reprinted at random: 2 entries already listed, in no set order.
structure	EBI2 block	Gli-Sufu block	CHOP UPR activ	XBP1 UPR activ	697 NFkB inh	Jurkat NFkB inh	Mdm2 MdmX PPI
COc1ccc2oc(-c3ccccc3)c(C(=O)N(C)C)c2c1	7	-8	-1.0	-1	-20	-8	13
CCOC(=O)CN1C(=O)SC(Nc2ccc(C)cc2)C1=O (stereo not given)	-3	-6	-1.1	0	2	6	3

# The listing continues:
structure	EBI2 block	Gli-Sufu block	CHOP UPR activ	XBP1 UPR activ	697 NFkB inh	Jurkat NFkB inh	Mdm2 MdmX PPI
COc1ccc(-c2cnnn2-c2ccc([N+](=O)[O-])cc2)cc1	10	15	-0.5	-2	12	17	-16
O=C(NN=Cc1ccc(OC(F)F)cc1)c1ccc(NS(=O)(=O)c2cccs2)cc1	-8	-17	9.7	4	-40	-12	9
CCOC(=O)N1CCN(C(=O)c2ccc3c(c2)NC(=O)/C(=C\c2cccc(C)c2)S3)CC1	2	26	-1.1	-4	-12	3	26
Cc1cc(C)c(NC(=O)C2CCCCN2C)c(C)c1 (stereo not given)	-4	-3	0.0	-5	9	1	15
CCOC(=O)c1cc(C(=O)OCC)c2cccc(C)n2c1=O	-9	-2	-1.0	-2	-4	-12	40
O=c1cc(-c2ccc3c(c2)OCO3)oc2ccccc12	-2	-85	3.6	2	-98	-107	-58
CN1CCN(c2ncnc3c2c(-c2ccccc2)cn3-c2ccc(F)cc2)CC1	35	17	0.5	1	-20	-1	22
O=C(Nc1ccc2c(c1)Cc1ccccc1-2)c1ccc(Br)o1	3	-6	7.2	0	-20	-38	-60
Cc1nc2nc[nH]n2c(=O)c1NC(=O)CCc1ccccc1	-4	-1	-0.3	-2	-20	-3	-1
Cc1ccc(NC(=O)C2CC(Cl)=CCC2C(=O)O)c([N+](=O)[O-])c1 (stereo not given)	1	-4	-2.7	-3	12	-7	4
COc1ccc(/C(C)=N\n2cnnc2)cc1	-3	7	-0.4	-2	2	-1	37
O=C(NCC(F)(F)F)c1nn(Cc2ccccc2)c(=O)c2ccccc12	6	-1	1.1	2	-9	-2	23
NC(=O)c1cc(NC(=O)c2ccc(NS(=O)(=O)c3cccs3)cc2)cc(C(N)=O)c1	-6	-7	-0.2	-1	18	5	-4
COc1ccc(OC)c(-c2csc(N3CCC(c4ccccc4)CC3)n2)c1	-9	-14	1.6	-1	-8	-23	-28
COc1cccc(NC(=O)c2ccc(-c3ccccc3[N+](=O)[O-])o2)c1	2	-18	3.7	6	-5	-15	-7
O=C1Nc2cc(C(=O)N3CCc4ccccc4C3)ccc2S/C1=C\c1ccccc1	-4	-1	0.7	-4	-13	-3	21
O=C(Nc1ccccc1Cl)c1ccccc1Oc1ccc(C(F)(F)F)cc1[N+](=O)[O-]	6	-18	-3.0	1	-17	0	31
Cc1cc2cc(C(c3nnnn3Cc3ccco3)N3CCc4ccccc43)c(=O)[nH]c2cc1C (stereo not given)	20	-2	0.1	-3	20	0	7
Cc1cccc(NC2SC(=O)N(CC(=O)O)C2=O)c1 (stereo not given)	-18	/	-0.6	-4	7	-17	23
O=C(O)c1cc([N+](=O)[O-])cc2c1nnn2O	16	8	-1.0	1	3	-4	28
CC1Cc2ccccc2N1C(=S)NC(=O)c1cccc(Br)c1 (stereo not given)	-3	-7	0.8	1	-45	12	31
COc1cccc(C(=O)NC(=S)N2CCN(c3ccc(C(F)(F)F)cc3[N+](=O)[O-])CC2)c1	-2	-2	1.1	-3	1	10	10
COc1cc(OC)c(/C=N/n2c(C)nnc2C)c(OC)c1	-14	5	-0.6	-3	16	1	7
CCCC(=O)N1CCC1(C)C(=O)Nc1scc(C)c1C#N (stereo not given)	1	/	/	/	/	/	/
COc1ccc(/C(O)=C2\C(=O)C(=O)N(c3cc(C)on3)C2c2ccc(OC)c(OC)c2)cc1OC (stereo not given)	4	0	2.0	-1	14	5	1
CCC1Nc2ncnc(N3CCN(c4ccccc4)CC3)c2N(Cc2ccc(OC)cc2)C1=O (stereo not given)	56*	3	1.0	0	-2	-5	-16
S=c1[nH]nc(-c2cc(-c3ccsc3)n[nH]2)n1-c1cccc2ccccc12	-7	-3	0.4	1	-14	2	5
O=C1CC(c2ccc(F)c(Br)c2)C2=C(CCCC2=O)N1 (stereo not given)	-3	10	1.4	1	-10	4	10
COc1ccc(OC)c(CN(CCN2CCOCC2)S(=O)(=O)c2ccc(NC(C)=O)cc2)c1	0	-7	-0.2	-2	6	-11	-10
O=C(COc1ccc(Cl)cc1)N/N=C/c1cccc2cccnc12	25	-4	-1.7	-4	7	5	9

# Full records as entered above. Values in the order: EBI2 block | Gli-Sufu block | CHOP UPR activ | XBP1 UPR activ | 697 NFkB inh | Jurkat NFkB inh | Mdm2 MdmX PPI
# O=c1cc(-c2ccc3c(c2)OCO3)oc2ccccc12 reads -2 | -85 | 3.6 | 2 | -98 | -107 | -58
# S=c1[nH]nc(-c2cc(-c3ccsc3)n[nH]2)n1-c1cccc2ccccc12 reads -7 | -3 | 0.4 | 1 | -14 | 2 | 5

# Returning to the listing with the 3 entries that preceded the break.
structure	EBI2 block	Gli-Sufu block	CHOP UPR activ	XBP1 UPR activ	697 NFkB inh	Jurkat NFkB inh	Mdm2 MdmX PPI
O=C1CC(c2ccc(F)c(Br)c2)C2=C(CCCC2=O)N1 (stereo not given)	-3	10	1.4	1	-10	4	10
COc1ccc(OC)c(CN(CCN2CCOCC2)S(=O)(=O)c2ccc(NC(C)=O)cc2)c1	0	-7	-0.2	-2	6	-11	-10
O=C(COc1ccc(Cl)cc1)N/N=C/c1cccc2cccnc12	25	-4	-1.7	-4	7	5	9
C=CCOC(=O)C(C#N)c1nc2ccccc2nc1N1CCCC1 (stereo not given)	9	17	-0.1	-1	-13	-11	-9
Cc1cccc(/C=N/NC(=O)c2cccc(Cl)c2)n1	1	23	6.5	6	2	18	5
COc1cccc(Cn2nc(C(=O)O)c3ccccc3c2=O)c1	9	-1	0.3	3	23	-12	-3
Cc1ccc(NCc2nnc(SCC(=O)c3ccccc3)n2Cc2ccco2)c(C)c1	11	-5	1.4	0	2	2	-2
CC(=O)Nc1ccc(S(=O)(=O)N[C@@H](C)C(=O)OCC(=O)c2ccc[nH]2)cc1	-8	-3	-1.2	0	-3	13	9
COc1ccc(-c2csc3ncnc(N4CCN(c5ccccc5OC)CC4)c23)cc1	8	-4	7.1	5	-29	5	21
COc1ccc(/C=C/C(=O)NC(=S)N2CCSCC2)cc1	11	-3	1.9	-2	11	8	-2
CC(C)CCn1nnnc1CN1CCN(c2ccccc2)CC1	2	0	-1.7	3	2	4	30
Cc1cccc(/C=N/NC(=O)c2cccc([N+](=O)[O-])c2)n1	-7	22	1.9	3	6	1	-19
COc1ccc(-c2csc3ncnc(N4CCN(c5ccccc5Cl)CC4)c23)cc1	36	8	0.6	-2	-43	5	34
COc1cc(CO)cc(-c2cc(CO)cc(OC)c2OC)c1OC	-4	-3	0.0	-2	-4	-2	9
COc1ccc(CCC(=O)NCc2cccc(C(F)(F)F)c2)cc1	11	-1	2.0	-5	3	2	0
Cc1cc(C)c(NC(=O)C2CCCO2)c(C)c1NC(=O)C1CCCO1 (stereo not given)	-6	-2	0.9	-1	2	0	27
C=CCn1cnnc1SCC(=O)NCC1COc2ccccc2O1 (stereo not given)	-8	0	0.2	-3	9	5	6
CC(/C=C/c1ccc2c(c1)OCO2)=N/NC(=O)COc1ccc(C)cc1	6	-10	2.5	1	-1	1	30
CCC1Nc2ncnc(N3CCN(c4ccccc4)CC3)c2N(Cc2ccc(Cl)cc2)C1=O (stereo not given)	69*	7	0.4	7	-7	-5	14
N#Cc1cc([N+](=O)[O-])c(-n2nnc3ccccc32)c([N+](=O)[O-])c1	-4	-1	122*	-6	-18	-7	21
O=C(c1cc2ccccc2cc1O)N1CCCC(C(F)(F)F)C1 (stereo not given)	3	-4	0.4	-2	-20	-5	4

# Screening data (PubChem BioAssay)

# A portion of the library; the hit share may differ from the screen's.
